Screening data from PubChem BioAssay.
total CFTR: total CFTR protein upregulators, primary screen, cell-based, HeLa F508del-CFTR, immunofluorescence, viability (AID 1224863) | hit rate 0.1% among 10,000 | calls, or highest fold increase where a dose series was run | Cystic fibrosis transmembrane conductance regulator (Homo sapiens) | HeLa F508del-CFTR, immunofluorescence total CFTR, 24 h; by the record results were divided by relative cell number; some inactives read as strong as hits; in the data nearly all actives have a first-pass fold increase above 1.5; a few of its hits are not listed in these tables;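 note: total CFTR protein by anti-CFTR immunofluorescence in fixed cells; first pass at 25 µM or 10 µg/mL by library and series up to twice that; 1 = untreated cells; first-pass hits also needed half or more of the cells alive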
total CFTR fold 25 µM: recorded beside total CFTR, whose call it bears; fold increase; measured here: primary screen single dose 25 uM; library dosed in µM
total CFTR fold 10 ug/mL: also measured in total CFTR; calls as there; fold increase; measured here: primary screen 10 ug/mL
total CFTR viability 25 µM: recorded beside total CFTR, whose call it bears; viability, %; measured here: primary viability 25 uM; library dosed in µM;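 0% = killed and 100% = untreated cells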
total CFTR viability 10 ug/mL: recorded beside total CFTR, whose call it bears; viability, %; measured here: primary viability 10 ug/mL;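 0% = killed and 100% = untreated cells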
Starred values were filed as active, the others as inactive; i = inactive; . = not tested or not shown; & = joins results of further samples.

SMILES	total CFTR	total CFTR fold 10 ug/mL	total CFTR viability 10 ug/mL	others
CCN(CC)S(=O)(=O)NC(C)c1ccc2c(c1)OCO2 (stereo unspecified)	i	1.05	95.0
CC1(C2CC2)NC(=O)N(CC(=O)N2CCCSc3ccccc32)C1=O (stereo unspecified)	i	0.97	94.0
O=C1CCCN1CCCNS(=O)(=O)c1ccc2c(c1)CCC2	i	0.98	88.0
CC(C)(O/N=C(\C(=O)N[C@@H]1C(=O)N2C(C(=O)[O-])=C(C[n+]3ccccc3)CSC12)c1csc(N)n1)C(=O)O (stereo partly specified)	i	.	.	total CFTR fold 25 µM=0.97;total CFTR viability 25 µM=93.0
COc1ccc(S(=O)(=O)N2CCC(NS(=O)(=O)c3ccc(OC(F)(F)F)cc3)CC2)cc1	i	0.88	94.0
O=C1O[C@H]([C@@H](O)CO)C(O)=C1O	i	.	.	total CFTR fold 25 µM=1.28;total CFTR viability 25 µM=101.0
CN(C)CCOC(c1ccc(Cl)cc1)c1ccccn1 (stereo unspecified)	i	.	.	total CFTR fold 25 µM=1.09;total CFTR viability 25 µM=104.0
CCCCCCNS(=O)(=O)c1ccc(S(=O)(=O)C(F)F)cc1	i	0.9	81.0
COc1cc(C2=C(c3nc4ccccc4[nH]3)C(c3ccc(Cl)cc3)NC(=S)N2)cc(OC)c1OC (stereo unspecified)	i	0.95	90.0
CC(C)c1ccc(C(=O)CN2C(=O)NC3(CCCC3)C2=O)c(C(C)C)c1	i	0.92	76.0
CC(C)OCCCNC(=O)c1cc(Cl)c[nH]1	i	1.05	89.0
Cn1nnnc1SCC(O)c1ccccc1 (stereo unspecified)	i	0.93	97.0
O=C1C(=O)N(CCCn2ccnc2)C(c2ccc(Cl)cc2)/C1=C(\O)c1ccc(F)cc1 (stereo unspecified)	i	1.17	95.0
O=C1C(=O)N(CN2CCN(Cc3cc(=O)n4ccsc4n3)CC2)C(=O)N1Cc1cccs1	i	0.87	86.0
COc1cc(/C=C/C(=O)c2cc(OC)c(OC)c(OC)c2)cc(Cl)c1O	i	1.09	75.0
CC(=O)Nc1c(I)cc(I)c(C(=O)O)c1I	i	.	.	total CFTR fold 25 µM=0.98;total CFTR viability 25 µM=92.0
C[C@H]1COc2c(C3(N)CC3)c(F)cc3c(=O)c(C(=O)O)cn1c23	i	.	.	total CFTR fold 25 µM=0.96&1.1;total CFTR viability 25 µM=106.0&102.0
Cc1csc(NC(=O)CCc2cccs2)n1	i	1.08	92.0
Cc1ccc(C(C)NC(=O)CCC(=O)c2cccs2)o1 (stereo unspecified)	i	1.07	91.0
CC(=O)OCC(=O)[C@@]1(O)CCC2C3CCC4=CC(=O)CC[C@]4(C)C3C(=O)C[C@@]21C (stereo partly specified)	i	.	.	total CFTR fold 25 µM=0.96;total CFTR viability 25 µM=88.0
O=C1OCCC1N1CCN(S(=O)(=O)c2cc(F)ccc2F)CC1 (stereo unspecified)	i	0.99	106.0
Cc1cc(C(=O)CSc2nnc(-c3ccoc3C)o2)c(C)s1	i	0.89	84.0
C[C@]12CCC(=O)C=C1[C@@H]1C[C@@H]1[C@H]1[C@@H]3[C@@H]4C[C@@H]4[C@@]4(CCC(=O)O4)[C@@]3(C)CC[C@@H]12	i	.	.	total CFTR fold 25 µM=1.01;total CFTR viability 25 µM=111.0
Cc1c(-c2ccccc2)sc2ncnc(NCC(C)O)c12 (stereo unspecified)	i	0.94	94.0
Cc1cc(CN(C)S(=O)(=O)N2CCOCC2)no1	i	1.14	104.0
Cc1cc2nn(CN(Cc3ccccn3)C3CCSC3)c(=S)n2c2ccccc12 (stereo unspecified)	i	1.09	95.0
CCOC(=O)c1cn[nH]c1S(=O)(=O)NC1CCCCCC1	i	0.9	87.0
CCc1cc2oc(=O)cc(CN3CCCCC3C)c2cc1Cl (stereo unspecified)	i	1.01	84.0
Cc1noc(C)c1S(=O)(=O)N(C)Cc1ccc2ccccc2c1	i	0.86	85.0
C=C(C)CN(CC)S(=O)(=O)c1cc(S(C)(=O)=O)ccc1Cl	i	1.13	106.0
O=C(c1ccc(F)c(F)c1)c1cc2cc(Br)ccc2o1	i	1.1	96.0
CCc1cccc2c3c([nH]c12)C(CC)(CC(=O)O)OCC3 (stereo unspecified)	i	.	.	total CFTR fold 25 µM=1;total CFTR viability 25 µM=93.0
CC1CCC2(CC1)NC(=O)N(CC(=O)NC1CCCCCCC1)C2=O (stereo unspecified)	i	0.95	92.0
CCCc1ccc(N2CC(C(=O)NOC)CC2=O)cc1 (stereo unspecified)	i	0.96	97.0
COc1cc(CNC(=O)C2CSC3(C)CSCC(=O)N23)ccc1OCC1CCCO1 (stereo unspecified)	i	0.95	97.0
COc1ccc(Br)cc1-c1nc(CN2c3cccc4cccc(c34)S2(=O)=O)cs1	i	1.21	103.0
O=C(COC(=O)C12CC3CC(CC(Br)(C3)C1)C2)N1CCCc2ccccc21	i	0.99	87.0
CC(Cn1cccn1)NC(=O)C1CCC1 (stereo unspecified)	i	1.05	101.0
Clc1ccc(-n2c(SCc3cccnc3)nnc2-c2ccncc2)cc1Cl	i	1.08	101.0
COc1ccc(Br)cc1S(=O)(=O)N(C)Cc1ccc2c(c1)OCO2	i	0.98	78.0
CN(C)C1(CNC(=O)CCN2C(=O)NC3(CCCC3)C2=O)CCCCC1	i	1.02	102.0
O=[N+]([O-])c1ccc(NCCNc2cccc3ccccc23)c(S(=O)(=O)N2CCCC2)c1	i	1	91.0
N#CCCC(C#N)CSc1nc2ccccc2o1 (stereo unspecified)	i	0.94	84.0
Cn1ncc2c(=O)n(CC(C#N)CCC#N)cnc21 (stereo unspecified)	i	1.02	101.0
NC[C@H](O)c1ccc(O)c(O)c1	i	.	.	total CFTR fold 25 µM=1.05&1.11;total CFTR viability 25 µM=85.0&88.0
CCCCNC(=O)COC(=O)c1ccc([N+](=O)[O-])o1	i	0.97	104.0
CO[C@@H]1[C@@H](O[C@@H]2O[C@H](C)[C@@H](O[C@H]3C[C@@](C)(O)[C@H](O)[C@H](C)O3)[C@H](N(C)C)[C@H]2O)[C@@H](CC=O)C[C@@H](C)[C@@H](O[C@H]2CC[C@H](N(C)C)[C@@H](C)O2)/C=C/C=C/C[C@H](C)OC(=O)C[C@H]1O	i	.	.	total CFTR fold 25 µM=0.84;total CFTR viability 25 µM=70.0
Cc1cc(C)n2c(SCc3coc(-c4ccccc4)n3)nnc2n1	i	1.11	99.0
Cc1occc1-c1nn(CN2CCc3ccccc3C2)c(=S)n1C	i	0.97	100.0
COC(=O)C1=C(C)N(C2CC2)C(=O)NC1c1ccc(OC(F)F)cc1 (stereo unspecified)	i	1	84.0
CCN(CC)S(=O)(=O)N1CCN(c2ccc([N+](=O)[O-])cc2Cl)CC1	i	1	96.0
Cc1cc(C(=O)CSc2nnnn2C(C)(C)C)c(C)n1Cc1ccco1	i	1.11	96.0
Oc1c(I)cc(I)c2cccnc12	i	.	.	total CFTR fold 25 µM=0.86;total CFTR viability 25 µM=74.0
O=[N+]([O-])c1cc(C(F)(F)F)ccc1I	i	1.08	106.0
CC1(C)NC(=O)N(CCCC(=O)Nc2nc3c(s2)CCCC3)C1=O	i	1.21	99.0
Cc1ccc(Sc2ncnc3sc4c(c23)CCC4)cc1C	i	1.03	105.0
O=C1CN(C(=O)CSc2ncc(C(F)(F)F)cc2Cl)C2(CCCCC2)C(=O)N1	i	1.12	106.0
N#CCCN(CCC#N)Cn1nc2c(Cl)cc(Cl)cn2c1=S	i	1.06	105.0
CCCCc1ncc(/C=C(\Cc2cccs2)C(=O)O)n1Cc1ccc(C(=O)O)cc1	i	.	.	total CFTR fold 25 µM=1.07;total CFTR viability 25 µM=104.0
Cc1noc(N)c1C(=O)OCc1cc(=O)oc2ccc3ccccc3c12	i	0.78	80.0
Going on with the list.
SMILES	total CFTR	total CFTR fold 10 ug/mL	total CFTR viability 10 ug/mL	others
NC(N)=NCCN1CCCCCCC1	i	.	.	total CFTR fold 25 µM=0.99;total CFTR viability 25 µM=113.0
O=[N+]([O-])c1ccc(N2CCN(Cc3cc(F)cc4cccnc34)CC2)cc1	i	0.98	87.0
Clc1ccc2sc(SCc3nc4ccccc4o3)nc2c1	i	0.87	76.0
CN(C)S(=O)(=O)N(C)Cc1ccccc1N1CCCC1	i	1.01	91.0
CC(CCc1ccc(O)cc1)NCCc1ccc(O)c(O)c1 (stereo unspecified)	i	.	.	total CFTR fold 25 µM=1.06;total CFTR viability 25 µM=85.0
COC(=O)c1sc(S(=O)(=O)NC2CCN(C3CC3)CC2)c(C(=O)OC)c1C	i	0.95	77.0
Cn1c(SCCCC(=O)c2cccs2)nc2ccsc2c1=O	i	0.98	80.0
Cc1cc(NC(=O)NC2CCC(C)CC2)no1 (stereo unspecified)	i	1.04	91.0
CC(C)(C)N1CCC(NS(=O)(=O)c2ccc(Cl)c(Cl)c2)CC1	i	0.81	92.0
Cc1c(C)c(C)c(S(=O)(=O)NCc2ccc(S(=O)(=O)N3CCOCC3)s2)c(C)c1C	i	0.98	87.0
Cc1occc1C(=O)Nc1n[nH]c(C(F)(F)F)n1	i	1.03	97.0
O=C(NCc1cnn(-c2ccccc2)c1)NC1CC2CC1C1CCCC21 (stereo unspecified)	i	0.98	75.0
CCC1(c2ccccc2)NC(=O)N(CN(CC(C)C)CC(C)C)C1=O (stereo unspecified)	i	1.05	83.0
Cc1ccc(-c2nc(CSc3nccn3C)co2)c(C)c1	i	0.96	78.0
CCN(Cc1ccc(OCc2ccccc2)cc1)Cn1ncn(C)c1=S	i	1.01	93.0

Grouped by structure, those above with an aryl thioether with sulfur outside any ring
SMILES	total CFTR	total CFTR fold 10 ug/mL	total CFTR viability 10 ug/mL	others
Cn1nnnc1SCC(O)c1ccccc1 (stereo unspecified)	i	0.93	97.0
Cc1cc(C(=O)CSc2nnc(-c3ccoc3C)o2)c(C)s1	i	0.89	84.0
Clc1ccc(-n2c(SCc3cccnc3)nnc2-c2ccncc2)cc1Cl	i	1.08	101.0
N#CCCC(C#N)CSc1nc2ccccc2o1 (stereo unspecified)	i	0.94	84.0
Cc1cc(C)n2c(SCc3coc(-c4ccccc4)n3)nnc2n1	i	1.11	99.0
Cc1cc(C(=O)CSc2nnnn2C(C)(C)C)c(C)n1Cc1ccco1	i	1.11	96.0
Cc1ccc(Sc2ncnc3sc4c(c23)CCC4)cc1C	i	1.03	105.0
O=C1CN(C(=O)CSc2ncc(C(F)(F)F)cc2Cl)C2(CCCCC2)C(=O)N1	i	1.12	106.0
Clc1ccc2sc(SCc3nc4ccccc4o3)nc2c1	i	0.87	76.0
Cn1c(SCCCC(=O)c2cccs2)nc2ccsc2c1=O	i	0.98	80.0
Cc1ccc(-c2nc(CSc3nccn3C)co2)c(C)c1	i	0.96	78.0

New compounds follow.
SMILES	total CFTR	total CFTR fold 10 ug/mL	total CFTR viability 10 ug/mL	others
CCC(C)C(=O)O[C@H]1C[C@H](O)C=C2C=C[C@H](C)[C@H](CC[C@@H](O)C[C@@H](O)CC(=O)O)C21 (stereo partly specified)	i	.	.	total CFTR fold 25 µM=1.16;total CFTR viability 25 µM=83.0
CNc1snc(C)c1C(=O)OCC(=O)NC1CC1	i	1.07	79.0
O=C(CNC(=O)C12CC3CC(CC(Cl)(C3)C1)C2)Nc1nccs1	i	0.99	98.0
CCCS(=O)(=O)N1CCC(N)CC1	i	1.28	93.0
CS(=O)(=O)Nc1ccc(Nc2ccc(C(F)(F)F)cc2[N+](=O)[O-])cc1	i	0.83	82.0
C[C@@H](NCCCc1cccc(C(F)(F)F)c1)c1cccc2ccccc12	i	.	.	total CFTR fold 25 µM=0.57;total CFTR viability 25 µM=9.0
c1cc2c(cc1-c1[nH]ncc1CNCC1COCCO1)OCO2 (stereo unspecified)	i	1.01	97.0
CC1Cc2ccccc2N1C(=O)COc1ccc2c3c(c(=O)oc2c1)CCC3 (stereo unspecified)	i	1.01	97.0
CC(C)(C)c1nc(SCc2cn(-c3ccccc3)nc2-c2ccccc2)n[nH]1	i	0.82	90.0
O=C(O)CCCOc1ccc(I)cc1	i	1.07	89.0
Cc1oc(C)c(C(=O)Nc2ncn[nH]2)c1C	i	0.86	86.0
CC(C)c1noc(C(C)N2CCN(C(=O)C3CC3)CC2)n1 (stereo unspecified)	i	0.9	94.0
CC(C)CCCC(C)[C@H]1CCC2C3CC=C4C[C@@H](O)CC[C@]4(C)C3CC[C@@]21C (stereo partly specified)	i	.	.	total CFTR fold 25 µM=1.08;total CFTR viability 25 µM=85.0
Cc1nc(C2(NC(=O)C3(C)CC3(Cl)Cl)CCCCC2)no1 (stereo unspecified)	i	1.03	95.0
CC(C#N)Sc1nnnn1-c1ccc(Cl)cc1 (stereo unspecified)	i	0.96	98.0
O=C(OCc1cc([N+](=O)[O-])cc2c1OCOC2)c1ccc2c(c1)S(=O)(=O)N=C1CCCCCN12	i	1.03	75.0
CN(C)c1ccc([N+](=O)[O-])cc1C(=O)N1CCc2cc(F)c(F)cc21	i	1.1	95.0
CN1CCCC(n2nc(Cc3ccc(Cl)cc3)c3ccccc3c2=O)CC1 (stereo unspecified)	i	.	.	total CFTR fold 25 µM=1.25&1.2;total CFTR viability 25 µM=99.0&89.0
CONC(=O)CCN1C(=O)CSc2ccccc21	i	1.03	98.0
CC(=O)C1C(=O)C=C(C)OC1=O (stereo unspecified)	i	.	.	total CFTR fold 25 µM=1.09;total CFTR viability 25 µM=104.0

Not all compounds are listed; count on the stated rates, not on these rows.
